Bfl-1 A1 inh: caspase 3/7 activation in MEF A1-2A-BIM cells, primary screen, A1 inhibitor project, cell-based, luminescence, HTS; Caspase-Glo 3/7 luminescence, 3 h; percent of clofoctol response, vehicle zero; caspase activation, % (test concentration not listed); 330,000 tested, 0.066% active; AID 2462, 2010;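 active = over half of replicate activation scores above 10%, or exactly half above 10 with the replicate mean above 10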;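 note: wells of about 30 µL received 50 nL stock; many hits fall short of the cut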
Ecoli rRNA inh: reduced GFP signal of wild-type E. coli, primary screen, bacterial rRNA inhibitor project, GFP/RFP fluorescence, OD600, single point. E. coli WT GFP vs humanized-ribosome RFP mutants, 24 h; hits give low values; DMSO median 0, no signal -100. GFP signal change (wild-type ribosome), % (concentration not given with the values). 350,000 tested, 1.6% active. AID 720706, 2013;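 active = significant combined selectivity score with lowered wild-type GFP, culture density cut under 30%, mutant RFP and density less affected; inactive = any of these conditions unmet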; note: one replicate is shown; some compounds called inactive have numbers as strong as hits
T cruzi repl: inhibitors of intracellular T. cruzi growth, primary screen, luminescence, NIH3T3 host cells; 300,000 tested, 1.4% active; T. cruzi beta-gal in NIH3T3, 90 h; inhibition, % (concentration not given with the values); AID 1885, 2009;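 active = mean inhibition across valid replicates above about 55%, limit read from the data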;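 note: signal also drops with host cell toxicity which is not excluded here; 0% = plate median of DMSO wells and 100% = zero luminescence signal; higher percent means less beta-gal luminescence so fewer parasites; stock transfer was 50 nL into about 50 µL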
Ecoli growth: E. coli growth inhibition, primary screen, OD600; Escherichia coli growth, 23 h; hits give low values; OD600 absorbance (test concentration not listed); 330,000 tested, 0.21% active; AID 1053175, 2014;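 active = OD600 absorbance below the run mean of sample wells minus 3.6 SD, in any replicate, cut at about 0.56 in these data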;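 note: stock transfer was 300 nL into about 60 µL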
UCH37 inh: inhibitors of human UCH37 deubiquitinase, primary screen, biochemical, Ub-AMC cleavage, fluorescence | Ubiquitin carboxyl-terminal hydrolase isozyme L5 (Homo sapiens), Q9Y5K5 | purified proteasome/UCH37 | inhibition, % (concentration not given with the values) | 330,000 tested, 0.33% active | AID 588478, 2011;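 active = mean of two replicates above 20%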;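 note: 0% = compound-free wells with enzyme and 100% = wells lacking proteasome; stock transfer was 100 nL into about 20 µL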
Target sequence (Q9Y5K5 whole entry, looked up): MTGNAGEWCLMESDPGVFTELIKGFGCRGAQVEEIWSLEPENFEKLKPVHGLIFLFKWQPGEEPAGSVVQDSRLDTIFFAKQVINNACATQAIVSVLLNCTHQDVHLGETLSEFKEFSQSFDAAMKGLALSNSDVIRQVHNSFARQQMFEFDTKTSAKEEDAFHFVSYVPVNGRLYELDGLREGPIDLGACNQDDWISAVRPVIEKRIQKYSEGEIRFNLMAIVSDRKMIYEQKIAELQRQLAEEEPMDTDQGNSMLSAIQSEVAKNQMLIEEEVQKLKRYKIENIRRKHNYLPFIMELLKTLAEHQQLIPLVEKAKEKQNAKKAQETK
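Test system – human UCH37 enzyme supplied as purified proteasome complex · Incubation – 30 min preincubation with enzyme, 25 min cleavage at room temperature · Detection – AMC fluorescence from Ub-AMC cleavage, excitation 355 nm, emission 460 nm · Benchmarks – no-proteasome wells (full inhibition) and compound-free wells (no inhibition)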
FGF22 binding: binders of human FGF22 protein, primary screen, FGF22 synaptogenesis inhibitor project, biophysical, thermal shift, single point | Fibroblast growth factor 22 (Homo sapiens), Q9HCT0 | recombinant FGF22 thermal shift, SYPRO orange fluorescence; percent of sucrose octasulfate shift, DMSO zero | calls only at 9.99 µM | 340,000 tested, 1.5% active | AID 651658, 2012;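 active = melting point raised past a set limit in the mean and every replicate; three in four hits are not shown here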
Target sequence (Q9HCT0 whole entry, looked up): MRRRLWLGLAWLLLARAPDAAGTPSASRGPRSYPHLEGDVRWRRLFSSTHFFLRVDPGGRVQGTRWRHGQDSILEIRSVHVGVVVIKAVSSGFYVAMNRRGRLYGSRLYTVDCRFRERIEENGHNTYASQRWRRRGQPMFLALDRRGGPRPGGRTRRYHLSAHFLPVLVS
Beta apoptosis: inhibitors of cytokine-induced beta cell apoptosis, primary screen, luminescence. protection from apoptosis, % (no concentration beside the values). AID 435005, 2010. INS-1E cytokine-induced death, ATP luminescence, 48 h; percent of positive-control rescue, neutral wells zero. 300,000 tested, 0.8% active;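 active = all replicates at 75% or more, or half of them and the mean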;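 note: 0% = cytokine-treated negative control wells and 100% = positive control rescue; higher means more ATP so stronger rescue from cytokine killing; wells of about 40 µL received 100 nL stock; the first replicate is given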
AF4-AF9 inh: inhibitors of AF4 peptide binding to AF9, primary screen, biochemical, AlphaScreen, biotin-AF4 peptide, FLAG-AF9, single point | Protein AF-9 (Homo sapiens), P42568 | inhibition, % at 10 µM | 350,000 tested, 0.47% active;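 active = every replicate reaching a set inhibition limit, whatever the replicate mean, cut at about 25% in these data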;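 note: 0% = plate neutral control median and 100% = total signal loss; the record names both 10 and 1 µM as test concentration; the first replicate is given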
Target sequence (P42568 whole entry, looked up): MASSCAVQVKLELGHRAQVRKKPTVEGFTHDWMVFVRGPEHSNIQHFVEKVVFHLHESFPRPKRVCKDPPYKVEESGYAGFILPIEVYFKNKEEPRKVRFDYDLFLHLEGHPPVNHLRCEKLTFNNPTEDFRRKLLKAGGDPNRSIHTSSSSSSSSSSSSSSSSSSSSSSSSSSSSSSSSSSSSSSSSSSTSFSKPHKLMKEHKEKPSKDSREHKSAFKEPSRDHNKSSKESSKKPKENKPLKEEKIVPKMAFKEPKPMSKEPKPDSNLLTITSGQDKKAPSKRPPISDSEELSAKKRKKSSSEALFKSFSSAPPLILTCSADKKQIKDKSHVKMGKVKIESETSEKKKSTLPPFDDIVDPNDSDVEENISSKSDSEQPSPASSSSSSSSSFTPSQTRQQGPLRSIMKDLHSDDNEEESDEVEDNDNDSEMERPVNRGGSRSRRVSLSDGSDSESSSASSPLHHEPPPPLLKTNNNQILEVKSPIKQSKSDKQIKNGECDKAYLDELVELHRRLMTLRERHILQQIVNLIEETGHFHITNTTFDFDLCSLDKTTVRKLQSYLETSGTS
Ecoli rRNA inh OD600: second read-out of Ecoli rRNA inh, no call of its own (marks repeat the call); OD600 change, %; measured here: OD600 growth;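 optical density of the mix in the first replicate; 0 = DMSO median and -100 = no signal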
Ecoli rRNA inh RFP: recorded beside Ecoli rRNA inh, whose call it bears; RFP signal change, %; measured here: RFP humanized mutant strains;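 first replicate; 0 = DMSO median and -100 = no signal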
The depositor's hits bear a star; i = inactive; · = no result given; & = joins results of further samples.

molecule,T cruzi repl,Ecoli growth,AF4-AF9 inh,UCH37 inh,Ecoli rRNA inh OD600,Beta apoptosis,FGF22 binding,Ecoli rRNA inh RFP,Ecoli rRNA inh,Bfl-1 A1 inh
CC1CCN(C(CC(=O)c2ccccc2)C(=O)c2ccccc2)CC1 (stereo unspecified),·,0.59,0.2,3.1,·,·,i,·,·,·
COc1ccc(OC)c(C2=NOC(C(=O)N3CCC4(CC3)OCCO4)C2)c1 (stereo unspecified),·,0.7,·,-4.7,·,3,·,·,·,0.7
COC(=O)C1=C(c2cccc(C#N)c2)C[C@@H]2CC[C@H]1N2C(=O)NC1CC1,·,·,-1.4,1.3,15,-4,i,-4.5,23,0.0
Cc1[nH]c2ccc(OCc3ccccc3)cc2c1CCN,-8,0.68,41*,3.8,9,-3,i,0.9,9,0.9
COc1cc2c(cc1OC)C(C(=O)NCCC(C)C)C1CCCCN1C2=O (stereo unspecified),-12,0.69,·,4.8,·,3,·,·,·,0.4
COc1cc(/C=N/NC(=O)Cn2c([N+](=O)[O-])cnc2C)ccc1OC(=O)N(C)C,5,·,3.1,·,0,-6,i,3.7,7,0.0
OC(CC#CCN1CCCCCC1)(c1ccccc1)C1CCCC1 (stereo unspecified),23,0.66,-0.9,4.3,-10,8,i,2.0,-12,0.0
C[C@]12CCC3=C4CCC(=O)C=C4CC[C@H]3C1CC[C@@H]2O (stereo partly specified),-4,0.68,-22,3.9,-6,-4,i,-2.9,-6,0.8
Fc1ccc2c(c1)nnn2C1CCN(Cc2c(Cl)cccc2Cl)CC1,24,0.74,·,6.7,·,33,·,·,·,0.9
COc1nc(NCC2CCCO2)nc(N2CC3CC(C2)c2cccc(=O)n2C3)n1 (stereo unspecified),-4,0.65,-49,0.1,0,-3,i,-8.4,7,-0.9
CCN(CCCl)Cc1ccccc1Br,-6,0.7,1.5,4.3,1,-5,i,2.1,7,-0.5
CC12CN3CC(C)(CN(C1)C3c1cccs1)C2O (stereo unspecified),-12,0.62,-7.4,1.3,·,-7,·,·,·,1.2
Cn1c(O)c(C(=O)c2ccccc2F)c(=O)n(C)c1=O,-3,0.73,·,2.5,·,1,·,·,·,·
CCn1c(O)c(/C=N/N2CCOCC2)c(=O)n(CC)c1=S,19,0.67,-1.1,9.8,-1,-10,i,0.9,-2,0.1
COC(=O)C1=C(c2ccc(-c3ccccc3)c(F)c2)C[C@@H]2CC[C@H]1N2C(=O)NCCOc1ccccc1Cl,·,·,0.0,5.8,16,3,i,-1.6,10,-0.4
CN1/C(=C\C=C2C(=O)NC(=S)NC2=O)C(C)(C)c2ccccc21,8,0.77,-0.7,14,15,·,i,16,22,·
CCOC(=O)N1CCC(NC(=O)CCc2nc(C3=CCN(C)CC3)no2)CC1,-5,0.69&0.7,33*,1.7&-0.7,16,-8,i,0.6,9,-0.2
CCOP(=O)(OCC)/C(C#N)=C/c1ccc(Br)cc1,-12,·,1.3,·,-9,-6,i,5.1,1,0.3
COc1cc(CNCCc2ccc3c(c2)OCO3)ccc1O,17,0.66,0.9,2.2,9,-13,i,0.5,9,-0.8
CCOC(=O)c1sc(/N=C/c2c(O)n(-c3cccc(C)c3)c(=O)[nH]c2=O)c(C#N)c1C,-17,0.65,·,5.5,·,0,·,·,·,0.6
CN1CCN(c2ncnc(Cl)c2N)CC1,·,0.65,0.6,0.9,6,·,i,-6.7,16,·
COc1ccc(CCn2c(O)c(C=NCCN3CCCCC3)c(=O)[nH]c2=O)cc1OC,-3,0.69,·,4.8,·,·,·,·,·,0.6
Cc1nc2nc(SCC(=O)N3CCC4(CC3)OCCO4)nn2c(C)c1Cc1ccccc1,7,0.7,·,5.1,·,-1,·,·,·,0.0
COP(=O)(OC)/C(C=O)=N/Nc1ccc([N+](=O)[O-])cc1,8,·,-4.9,·,2,-1,i,-6.9,6,-0.2
COc1ccc(CCNCc2ccccc2F)cc1OC,3,0.7,·,-0.4,·,-6,·,·,·,-0.5
CN1C(=O)C(=Cc2coc3ccccc3c2=O)C(=O)N(C)C1=O,-8,0.59,-1.3,-11,17,0,i,2.3,25,0.0
O=c1[nH]c(N2CCN(Cc3ccc4c(c3)OCO4)CC2)nc2c1CCC2,·,0.75,·,-1.3,·,-2,·,·,·,-1.0
N=Cc1c(O)n(-c2ccc(C34CC5CC(CC(C5)C3)C4)cc2)c(=O)[nH]c1=O,-9,0.64,·,0.1,·,-4,·,·,·,0.0
O=C(Nc1ccccc1Cl)OC1CN2CCC1CC2 (stereo unspecified),13,0.65,-0.9,7.0,1,·,i,-1.7,13,2.2
O=C(CN1CCN(c2ccccc2F)CC1)Nc1cccnc1Cl,6,0.7,-0.2,3.6,-15,-3,i,0.6,-7,0.7

Filtered by structure, the compounds so far containing bromine
molecule,T cruzi repl,Ecoli growth,AF4-AF9 inh,UCH37 inh,Ecoli rRNA inh OD600,Beta apoptosis,FGF22 binding,Ecoli rRNA inh RFP,Ecoli rRNA inh,Bfl-1 A1 inh
CCN(CCCl)Cc1ccccc1Br,-6,0.7,1.5,4.3,1,-5,i,2.1,7,-0.5
CCOP(=O)(OCC)/C(C#N)=C/c1ccc(Br)cc1,-12,·,1.3,·,-9,-6,i,5.1,1,0.3

Going on with the list:
molecule,T cruzi repl,Ecoli growth,AF4-AF9 inh,UCH37 inh,Ecoli rRNA inh OD600,Beta apoptosis,FGF22 binding,Ecoli rRNA inh RFP,Ecoli rRNA inh,Bfl-1 A1 inh
CCOC(=O)C1C(=O)N(C)C2(C)CC1c1cc(OC)ccc1O2 (stereo unspecified),-9,0.69,·,0.4,·,0,·,·,·,0.4
CCC(=NCCN1CCCCC1)c1c(O)n(C)c(=O)n(C)c1=O,1,0.69,·,-0.6,·,-6,·,·,·,0.1
N#CC1=C(N)Oc2c(c(=O)oc3ccccc23)C1c1ccc(OC(=O)N2CCOCC2)cc1 (stereo unspecified),-6,0.64,-3.1,-0.7,14,2,i,4.0,8,0.7
CC(N=Cc1c(O)[nH]c(=O)[nH]c1=O)c1ccccc1 (stereo unspecified),-4,0.68,·,2.4,·,1,·,·,·,-0.2
COc1cc(C=C2C(=O)NC(=O)NC2=O)cc(OC)c1OC,-8,0.68,-8.7,3.8,7,-3,i,-1.2,15,0.0
CS(=O)(=O)NNP(=O)(NNS(C)(=O)=O)NC(=O)c1ccccc1,9,0.73,-6.2,-2.6,5,0,i,-1.9,10,0.6
Cc1c(C(=O)C(=O)N2CCC3(CC2)OCCO3)c2ccccc2n1C,-13,0.7,0.4,7.3,-2,-2,i,-1.6,3,-2.1
Cc1cc(C)cc(-n2c(O)c(C=Nc3ccc(N4CCOCC4)cc3)c(=O)[nH]c2=S)c1,3,0.64,·,-1.4,·,1,·,·,·,0.5
OC(Cn1c2ccccc2c2ccccc21)C[n+]1ccccc1 (stereo unspecified),-8,0.66,·,6.1,·,0,·,·,·,-0.5
O=C(C[N+]12CCC(CC1)C(CO)C2)c1ccc([N+](=O)[O-])cc1 (stereo unspecified),5,0.71,0.8,1.0,16,-3,i,-0.3,14,1.0
O=[N+]([O-])c1cc(O)c(O)c([N+](=O)[O-])c1,·,0.64,-4.4,8.6,16,-6,i,1.6,-12,0.4
O=C1NC(=O)N(c2ccccc2)C(=O)/C1=C\C=C\c1ccccc1,-3,·,-2.1,·,9,13,i,9.0,8,1.8
COC(=O)C1=C(c2ccc(-c3ccccc3)c(F)c2)C[C@@H]2CC[C@H]1N2C(=O)NC(C)C,·,·,6.5,3.1,-13,3,i,-8.9,-4,0.1
Cc1ccsc1C(=O)C1CCCN(Cc2sc(N(C)C)nc2Cl)C1 (stereo unspecified),47,0.66,5.8,5.0,-27,-3,·,-2.4,-23,-0.3
O=C1NC(=O)N(CCc2ccc(F)cc2)C(=O)/C1=C/C=C/c1ccccc1,-6,0.67,7.8,3.9,8,9,i,42,5,1.2
CCCCCCn1c(O)c(C=NCCN2CCCCC2)c(=O)[nH]c1=O,-10,0.72,·,1.4,·,-9,·,·,·,0.0
CC(=O)NC(Cc1ccc(N(CCCl)CCCl)cc1)C(=O)NC(CC(C)C)C(=O)O (stereo unspecified),-9,0.68,0.7,1.4,-1,6,i,-1.3,3,0.1
Cc1cc(OCC(=O)NCc2ccncc2)c2c3c(c(=O)oc2c1)CCCC3,21,0.67,3.0,-78,-9,·,i,-1.7,-6,1.2
CCN(CC)C(=O)c1ccc(NC(=O)C2=C(C)OCCS2)cc1,-15,0.68,0.5,4.3,2,-2,i,7.6,-7,-1.6
COC(=O)C1=C(c2cccc(OCc3ccccc3)c2)C[C@@H]2CC[C@H]1N2C(=O)NCc1ccc(F)cc1,·,·,-1.8,3.8,-5,3,i,-1.6,-13,-3.2
CCOC(=O)c1ccc2c(c1)n(Cc1ccccc1)c(C)[n+]2CC,-2,0.73,-0.9,0.6,4,-3,i,0.1,7,2.4
O=C(c1cc(C(=O)NCc2ccccc2)c(=O)n(Cc2ccccc2)c1)c1cc(Cl)ccc1O,12,0.69,·,-0.5,·,9,·,·,·,0.6
O=[N+]([O-])c1cc([As](=O)(O)c2ccc(O)c([N+](=O)[O-])c2)ccc1O,-5,0.65,-0.7,7.8,14,0,i,2.7,13,0.2
COCCOC(=O)c1c(N)n(Cc2ccco2)c2nc3ccccc3nc12,-17,0.75,·,i,·,-3,·,·,·,-0.5
Cc1nn(CC(C)C)c(Cl)c1C(=O)O,-22,0.67,-0.5,0.8,7,-6,i,0.8,2,-0.5
C=CCNC(=S)/N=C/c1c(O)[nH]c(=O)[nH]c1=O,1,0.72,-0.4,5.2,13,-7,i,-1.2,12,0.4
Cc1nn(Cc2ccccc2Cl)c(Cl)c1C(=O)OCC(=O)NCc1ccco1,1,0.7,6.0,-2.5,10,-2,i,2.3,10,0.2
CC1CCC(N2CCN(C(=O)COc3ccccc3)CC2)CC1 (stereo unspecified),18,0.67,-0.1,1.6,10,-9,i,-1.2,7,-0.8
C=CCN1CC[C@]23c4c5ccc(O)c4OC2C(O)CC[C@@]3(O)[C@H]1C5 (stereo partly specified),·,0.76,·,2.7,4,·,i,2.7,7,·
CC/C(=N\Nc1ccccc1)c1c(O)[nH]c(=O)[nH]c1=O,-1,0.66,0.0,4.6,11,5,i,34,2,1.6
O=C(C1CCCO1)N1CCC2(CC1)OCCO2 (stereo unspecified),-16,0.66,·,-0.9,·,3,·,·,·,0.0

Assay outcomes from PubChem BioAssay.

Only part of the results is shown, so the mix of outcomes need not match the whole.
